Compound activity (PubChem BioAssay)
Measles inh = inhibitors of measles virus growth in infected cells. infected Vero cells, GFP fluorescence, 64 h; active compounds read low. z-score (no concentration beside the values). hit rate 0.1% among 33,000;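 active = z-score under -3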;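 also: score is relative to mean and SD of the compound wells of a plate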
* = called active by the depositor. The list is partial; rates above refer to the full screens.

How did Cc1ccc(-n2nc(C(=O)Nc3ccc(F)cc3)c3c4ccccc4n(C)c3c2=O)cc1 do in these assays?
Measles inh: 0.69

Results for CCOc1ccc(-c2cc(C(=O)N3CCN(Cc4ccc5c(c4)OCO5)CC3)c3ccccc3n2)cc1 ?
Measles inh: 0.33

What do the screens show for `O=C(Nc1ccc2nc(NC(=O)C3CCCCC3)sc2c1)C1CCCCC1`?
Measles inh: -1.3

How did Cc1ccc(C2=NN(CC(=O)NCCN3CCCCC3C)C(=O)CC2)cc1 (stereo unspecified) do in these assays?
Measles inh: -0.07

What do the screens show for `O=[N+]([O-])c1c(NCCO)cc(Sc2nc3ccccc3s2)c2nonc12`?
Measles inh: -1.5

What do the screens show for `CC1=C(C(=O)OCC2CCCO2)C(c2ccccc2)C2=C(CC(C)(C)CC2=O)N1` (stereo unspecified)?
Measles inh: -0.09

Results for Cc1cccc(CC(=O)N2CC(=O)Nc3ccc(Cl)cc3C2c2ccc(F)cc2)c1 (stereo unspecified) ?
Measles inh: -0.2

What do the screens show for `CC1=C(C(=O)Nc2ccccn2)C(c2ccc([N+](=O)[O-])cc2)C2=C(CC(C)(C)CC2=O)N1` (stereo unspecified)?
Measles inh: 0.61

How did CCOC(=O)C1=C(N)N(c2ccc(F)cc2)C2=C(C(=O)CCC2)C1c1ccc(F)cc1 (stereo unspecified) do in these assays?
Measles inh: 0.59

How did CCOC(=O)CNC(=O)c1c(-c2ccccc2Cl)noc1C do in these assays?
Measles inh: 0.07

How did Cc1cc(NS(=O)(=O)c2ccc3c(c2)CCN3C(=O)C2CC2)ccc1Br do in these assays?
Measles inh: -1.2

Results for O=C(O)CCC(=O)N1CCN(c2ccccn2)CC1 ?
Measles inh: -1.9

Results for COc1ccc(C=Cc2nc3ccccc3c(=O)n2-c2ccc(OC)c(Cl)c2)cc1O ?
Measles inh: -0.06

Results for O=C(NCc1cccnc1)C1CCC(CNS(=O)(=O)c2ccc(F)cc2)CC1 (stereo unspecified) ?
Measles inh: 0.59

How did Cc1ccc(C(C)C)c(OCC(=O)Nc2ccc(-c3nc4ccccc4s3)c(O)c2)c1 do in these assays?
Measles inh: -0.33

How did O=C(O)CCc1ccc(-c2ccc(F)cc2)n1-c1cccc(O)c1 do in these assays?
Measles inh: 0.01

What do the screens show for `COc1cccc(CNC(=O)CN2C(=O)CSc3ccc(S(=O)(=O)N4CCCCCC4)cc32)c1`?
Measles inh: 0.35

Results for Cc1ccc(S(=O)(=O)NC(C)(C)CN2CCN(C(c3ccccc3)c3ccccc3)CC2)cc1 ?
Measles inh: 0.2

How did COc1ccc(C2CC(=O)C=C(NCc3ccccc3)C2)cc1 (stereo unspecified) do in these assays?
Measles inh: 1.3

Results for CCCn1c(C(O)c2ccc(C(C)C)cc2)nc2ccccc21 (stereo unspecified) ?
Measles inh: -1.2

What do the screens show for `O=C(CC1c2ccccc2Oc2ccccc21)Nc1ccccn1`?
Measles inh: 0.07

What do the screens show for `COC(=O)c1sc2ccccc2c1NC(=O)c1ccc(S(=O)(=O)N2CCCC(C)C2)cc1` (stereo unspecified)?
Measles inh: -0.13

What do the screens show for `O=C(Cn1nnc2ccccc21)c1ccccc1`?
Measles inh: -0.39

How did CSc1nnc2c(n1)OC(c1cccc([N+](=O)[O-])c1)Nc1ccccc1-2 (stereo unspecified) do in these assays?
Measles inh: -0.77

What do the screens show for `Cc1ccc(C)c(N2CCN(C(=O)CCNC(=O)Cn3ccc4ccccc4c3=O)CC2)c1`?
Measles inh: -0.46

Results for Cc1ccccc1NC(=O)c1c(NC(=O)Cc2ccccc2)sc2c1CCCC2 ?
Measles inh: -0.91

How did O=S(=O)(c1ccccc1)N1CCCC(C(F)(F)F)C1 (stereo unspecified) do in these assays?
Measles inh: -0.7

Results for CC(=O)c1cccc(NS(=O)(=O)c2cnc[nH]2)c1 ?
Measles inh: -1.7

Results for COc1ccc2c(=O)c(-c3ccccc3Cl)c(C(F)(F)F)oc2c1 ?
Measles inh: -0.57

What do the screens show for `O=C(O)C1CCCCC1C(=O)Nc1ccc(S(=O)(=O)N2CCOCC2)cc1` (stereo unspecified)?
Measles inh: 0.35

13 entries already listed, ordered by length of the SMILES, lowest first:
What do the screens show for `O=C(Cn1nnc2ccccc21)c1ccccc1`?
Measles inh: -0.39

What do the screens show for `O=C(CC1c2ccccc2Oc2ccccc21)Nc1ccccn1`?
Measles inh: 0.07

Results for CC(=O)c1cccc(NS(=O)(=O)c2cnc[nH]2)c1 ?
Measles inh: -1.7

Results for CCCn1c(C(O)c2ccc(C(C)C)cc2)nc2ccccc21 (stereo unspecified) ?
Measles inh: -1.2

How did O=C(O)CCc1ccc(-c2ccc(F)cc2)n1-c1cccc(O)c1 do in these assays?
Measles inh: 0.01

Results for COc1ccc2c(=O)c(-c3ccccc3Cl)c(C(F)(F)F)oc2c1 ?
Measles inh: -0.57

Results for Cc1ccccc1NC(=O)c1c(NC(=O)Cc2ccccc2)sc2c1CCCC2 ?
Measles inh: -0.91

What do the screens show for `O=C(O)C1CCCCC1C(=O)Nc1ccc(S(=O)(=O)N2CCOCC2)cc1` (stereo unspecified)?
Measles inh: 0.35

How did CSc1nnc2c(n1)OC(c1cccc([N+](=O)[O-])c1)Nc1ccccc1-2 (stereo unspecified) do in these assays?
Measles inh: -0.77

How did Cc1ccc(C(C)C)c(OCC(=O)Nc2ccc(-c3nc4ccccc4s3)c(O)c2)c1 do in these assays?
Measles inh: -0.33

What do the screens show for `Cc1ccc(C)c(N2CCN(C(=O)CCNC(=O)Cn3ccc4ccccc4c3=O)CC2)c1`?
Measles inh: -0.46

What do the screens show for `COC(=O)c1sc2ccccc2c1NC(=O)c1ccc(S(=O)(=O)N2CCCC(C)C2)cc1` (stereo unspecified)?
Measles inh: -0.13

What do the screens show for `COc1cccc(CNC(=O)CN2C(=O)CSc3ccc(S(=O)(=O)N4CCCCCC4)cc32)c1`?
Measles inh: 0.35

(list continues)
Results for COc1ccc(CNC(=O)C2CCN(C(=O)c3ccc(Cl)cc3)CC2)cc1 ?
Measles inh: -0.6

What do the screens show for `CCOc1ccc(NC(=O)c2ccc(C)cc2)cc1`?
Measles inh: 0.32

Results for Cc1cccc(C)c1-n1c(N)c(C(=O)NCc2ccccc2)sc1=S ?
Measles inh: -1.5

Results for COc1ccc2c(c1)OC1=C(C(=O)CCC1)C2C1=C(O)CCCC1=O (stereo unspecified) ?
Measles inh: 3.3

Results for COc1ccc(-n2c(=S)[nH]c3cc(C(=O)N4CCOCC4)ccc3c2=O)cc1 ?
Measles inh: 0.75

What do the screens show for `CCCCCn1c(SCCN2CCOCC2)nc2c1c(=O)[nH]c(=O)n2C`?
Measles inh: -0.12

What do the screens show for `CC(CN1C(C)CCCC1C)OC(=O)c1ccccc1Cl` (stereo unspecified)?
Measles inh: 0.21

How did O=C1NC(c2cccc3ccccc23)Nc2sc3c(c21)CCCC3 (stereo unspecified) do in these assays?
Measles inh: -1.6

Results for ClCCOc1ccc(Br)cc1OCCCl ?
Measles inh: -0.38

What do the screens show for `COc1ccc(Br)cc1S(=O)(=O)n1cnc2cc([N+](=O)[O-])ccc21`?
Measles inh: -0.57

How did O=c1[nH]c(-c2ccc(OCc3ccc(F)cc3)cc2)nc2sc3c(c12)CCCC3 do in these assays?
Measles inh: 1.2

How did CC1=CC(C)=Nc2ccc(C)cc2N1 do in these assays?
Measles inh: 0.09

What do the screens show for `COc1ccc2oc(=O)c(C(=O)Nc3ccc(C)c(Cl)c3)cc2c1`?
Measles inh: 1.3

How did CC1CCN(S(=O)(=O)c2ccc3ncn(CC(=O)N4CCN(Cc5ccc6c(c5)OCO6)CC4)c(=O)c3c2)CC1 do in these assays?
Measles inh: -0.41

How did O=C1C2=C(C(c3ccc(Cl)cc3)=NCCN2)C(c2ccc(Br)cc2)N1c1ccccc1 (stereo unspecified) do in these assays?
Measles inh: -1.5

How did O=C(Nc1ccccc1[N+](=O)[O-])c1cc(S(=O)(=O)Nc2ccc(Br)cc2)ccc1Cl do in these assays?
Measles inh: -1.4

How did CCCn1c(=N)c(C(=O)NCCCOC)cc2c(=O)n3cccc(C)c3nc21 do in these assays?
Measles inh: 0.57

How did O=C(c1n[nH]c(=O)c2ccccc12)N1CCN(Cc2ccc3c(c2)OCO3)CC1 do in these assays?
Measles inh: 2.2

Results for Nc1c(C(=O)NCCc2ccc(Cl)cc2)nnn1-c1ccc2c(c1)OCCO2 ?
Measles inh: -0.32

Results for O=C(Nc1cc(O)cc([N+](=O)[O-])c1)c1nn2c(C(F)(F)F)cc(-c3cccs3)nc2c1Cl ?
Measles inh: -0.65

What do the screens show for `O=C(c1ccc2c(c1)N(Cc1cccc(Cl)c1)C(=O)CS2)N1CCCC1`?
Measles inh: -1.3

How did O=C1C(Cl)=C(NC2CCCCC2)C(=O)N1Cc1ccccc1 do in these assays?
Measles inh: -1.1

What do the screens show for `O=C(Nc1ccc(-c2nc3ccccc3c(=O)o2)cc1)c1cccs1`?
Measles inh: 0.83

Results for O=C(COC(=O)c1ccc(N2C(=O)CCC2=O)cc1)Nc1nc2ccccc2s1 ?
Measles inh: -0.45

How did CC1=C(C(=O)Nc2ccccc2F)C(c2cccc(Cl)c2)C2=C(CC(C)(C)CC2=O)N1 (stereo unspecified) do in these assays?
Measles inh: 0.76

What do the screens show for `O=C1c2ccccc2-c2onc3c(N4CCCC4)ccc1c23`?
Measles inh: -0.47

How did CC(=O)Nc1cccc2c1C(=O)c1ccccc1C2=O do in these assays?
Measles inh: -0.45

What do the screens show for `COc1ccccc1CNS(=O)(=O)c1ccc(F)c(C(=O)Nc2ccc(Cl)cc2)c1`?
Measles inh: -1.1

What do the screens show for `Cc1ccc2nc(NC(=O)CCNS(=O)(=O)c3cccs3)sc2c1`?
Measles inh: -0.45

Results for O=C(CN1CCCC1)Nc1c(C(=O)C2CC2)oc2ccc(Cl)cc12 ?
Measles inh: -1

What do the screens show for `CCOc1ccc(N2CC(C(=O)Nc3cccc(OC)c3)CC2=O)cc1` (stereo unspecified)?
Measles inh: -0.93

Results for Cc1cc(N)n(Cc2ccccc2)n1 ?
Measles inh: 1

What do the screens show for `O=c1c2sccc2n(Cc2ccc(F)cc2)c(=O)n1-c1ccccc1`?
Measles inh: 1.4

Results for CCCOc1ccc(C(=O)Nc2ccc(NC(=O)c3ccc(Br)cc3)cc2)cc1 ?
Measles inh: 0.95

What do the screens show for `CCC1Oc2ccc(Cl)cc2N(CC(=O)NCc2ccc(C)cc2)C1=O` (stereo unspecified)?
Measles inh: -0.57

What do the screens show for `Cc1cc(C(=O)Nc2ccc([N+](=O)[O-])cn2)ccc1[N+](=O)[O-]`?
Measles inh: -0.02

What do the screens show for `CCOc1cccc2c1OC13CCCC1C2NC(=S)N3c1ccccc1` (stereo unspecified)?
Measles inh: -1.2

Results for Cc1cccc(OCC(=O)Nc2sc3c(c2C(=O)OC(C)C)CCCC3)c1C ?
Measles inh: -0.29

Results for COc1ccccc1-c1c(C(F)(F)F)oc2c(CN3CCOCC3)c(O)ccc2c1=O ?
Measles inh: 0.32

How did CSc1nnc2c3cc(Br)ccc3n(C)c2n1 do in these assays?
Measles inh: 0.58

What do the screens show for `O=C(C(Sc1ccccc1)c1ccccc1)N1CCN(c2ccccn2)CC1` (stereo unspecified)?
Measles inh: -2.5

How did O=C1NC(=O)C2C1C1(c3ccccc3)C(=O)C2(c2ccccc2)C(c2ccc3c(c2)OCO3)=C1c1ccc2c(c1)OCO2 (stereo unspecified) do in these assays?
Measles inh: -0.1

How did NCCc1c(C(=O)O)[nH]c2ccc(S(N)(=O)=O)cc12 do in these assays?
Measles inh: -0.39

Results for CCOC(=O)c1c(NC(=O)c2ccccc2F)sc(C(=O)Nc2cccc(Cl)c2)c1C ?
Measles inh: -0.09

What do the screens show for `CCn1cnc2sc(C(=O)Nc3ccc(Oc4ccc(Cl)cc4)cc3)c(C)c2c1=O`?
Measles inh: 2.1

What do the screens show for `Cc1cc(NC(=O)C2CC(=O)OC2c2ccccc2)no1` (stereo unspecified)?
Measles inh: 0.17

How did CCCCCn1c(=O)[nH]c2cc(C(=O)NC3CCC(C)CC3)ccc2c1=O (stereo unspecified) do in these assays?
Measles inh: 0.65

Results for CCc1ccc2[nH]cc(C(=O)c3cccc(OC)c3)c(=O)c2c1 ?
Measles inh: 0.09

How did COc1ccc(CNc2ccc3c(c2)ncn3C(C)(C)C)cc1OC do in these assays?
Measles inh: 1.4

How did Cc1cc(C)cc(NC(=O)c2cc(S(=O)(=O)NC3CCCCC3)ccc2F)c1 do in these assays?
Measles inh: 0.01

Results for O=C(c1ccc(Cn2c(=S)[nH]c3ccccc3c2=O)cc1)N1CCCCCC1 ?
Measles inh: -1.1

Results for O=C(c1ccc2nc3ccsc3c(=O)n2c1)N1CCN(Cc2ccccc2)CC1 ?
Measles inh: -0.53

Results for Cc1ccc(/C(O)=C2\C(=O)C(=O)N(CCN(C)C)C2c2ccccc2F)cc1 (stereo unspecified) ?
Measles inh: -0.59

Results for CSc1ccccc1Sc1cc(C(=O)O)c2ccccc2n1 ?
Measles inh: 0.2

How did O=C(NCCc1ccc(Cl)cc1)c1ccc(CNS(=O)(=O)c2ccc(F)cc2)cc1 do in these assays?
Measles inh: -1.1

How did Cc1ccc(C)c(NC(=O)c2cc(S(=O)(=O)N3CCCCCC3)ccc2F)c1 do in these assays?
Measles inh: -2.4

Results for O=C(c1ccc(Cn2c(=S)[nH]c3cc4c(cc3c2=O)OCO4)cc1)N1CCC(N2CCCCC2)CC1 ?
Measles inh: 1.1

What do the screens show for `COc1ccc(CCNC2CC(=O)N(c3ccc(F)cc3)C2=O)cc1OC` (stereo unspecified)?
Measles inh: -0.32

Results for C=C(c1ccccc1)c1ccc(OC)cc1 ?
Measles inh: 1

Results for O=C(Nc1c(-c2ccccc2)nc2ccc(Cl)cn12)c1cccs1 ?
Measles inh: 0.49

What do the screens show for `O=C1C2C(c3ccc(Cl)cc3)NN(C(=O)c3cccc(Br)c3)C2C(=O)N1c1ccccc1Cl` (stereo unspecified)?
Measles inh: -0.85

What do the screens show for `Cc1cc(=O)n(CCO)c(=O)[nH]1`?
Measles inh: 0.25

How did Cc1ccc(CSCc2ccc(C(=O)NC3CCCC(C)C3C)o2)cc1 (stereo unspecified) do in these assays?
Measles inh: 2.3

How did COCC(=O)Oc1c(Sc2ccccc2[N+](=O)[O-])c(C)nn1C(C)(C)C do in these assays?
Measles inh: -0.04

What do the screens show for `O=C(O)CCC(=O)Nc1ccccc1F`?
Measles inh: -0.17

Results for O=C(Nc1ncc(S(=O)(=O)c2ccc([N+](=O)[O-])cc2)s1)c1ccc(F)cc1 ?
Measles inh: -0.71
